SARS PLP yeast – blocks SARS-CoV papain-like protease in a yeast assay; S. cerevisiae expressing SARS-CoV PLpro, growth rescue; control for the full effect not named in the record; Potency, µM (top dose mostly 32.9 µM), inactives show at the top dose activity, positive = growth rescue; 330,000 tested, 0.19% active; AID 485353; note: 0% is about no effect; nearly all actives have a fitted effect of over 55% in size; growth read by luminescence after 48 h
2A StopGo – lowers the luciferase signal of an FMDV 2A StopGo reporter. human cells with a luciferase reporter of 2A StopGo recoding; control for the full effect not named in the record. 410,000 tested, 1.2% active. Potency, µM (doses to about 57.9 µM), for the others: at the highest dose signal change, negative = less light. AID 1159524; active = well fitted falling curve with a large enough effect; inconclusive = small, poorly fitted or top-dose-only effect; inactive = no such curve, though single readings can be large or run the other way; tested in HEK293T cells; note: % is set by controls: 0 for no effect and ±100 for the full control effect; nearly all actives have a fitted effect of over 45% in size; luciferase light after 4 h
MARV entry inh – blocks Marburg virus binding to or entry into cells. Marburg virus pseudotyped entry inhibition, cell reporter; control for the full effect not named in the record; about a third of the inactives were read at about 46 µM. Potency, µM (titrated, usually from 37.8 µM), inactives show top-dose activity change, negative = inhibition, usual class: inhibitors. 300,000 tested, 1.8% active; active = well fitted inhibition curve with a large enough effect; inconclusive = small, poorly fitted or top-dose-only effect, or effect the other way; inactive = flat fitted curve, though single readings scatter; tested in HEK293 cells; about a fifth of its hits are not listed in these tables; note: % is set by controls: 0 for no effect and ±100 for the full control effect; luciferase read-out
Lassa entry inh – blocks Lassa virus binding to or entry into cells; Potency, µM (doses to about 37.9 µM), for inactives: top-dose activity change, negative = inhibition, hits mostly inhibitors; 300,000 tested, 1.2% active; Lassa virus pseudotype entry inhibition, cell reporter; control for the full effect not named in the record; active means well fitted inhibition curve with a large enough effect; inconclusive means small, poorly fitted or top-dose-only effect, or effect the other way; inactive means flat fitted curve, though single readings scatter; tested in HEK293 cells; note: % is set by controls: 0 for no effect and ±100 for the full control effect; nearly all actives have a fitted effect of over 50% in size; luciferase read-out
Cruzain Triton – blocks cruzain activity in presence of Triton detergent; AID 1478; purified cruzain, Z-FR-AMC fluorescence, 0.01% Triton; 200,000 tested, 0.43% active; Potency, µM, for the others: max response, negative = inhibition, actives largely listed as inhibitors; P25779; active = well fitted curve in the direction sought with a large enough effect; inconclusive = small, poorly fitted or top-dose-only effect, or another doubt; inactive = no such curve, though single readings can be large; an effect the other way counts as inactive or inconclusive;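 note: plate controls were neutral wells for no effect and buffer without enzyme for full effect; nearly all actives have a fitted effect of over 40% in size; top concentration of the series not given in the record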
Target sequence (P25779 123-467 limits assumed): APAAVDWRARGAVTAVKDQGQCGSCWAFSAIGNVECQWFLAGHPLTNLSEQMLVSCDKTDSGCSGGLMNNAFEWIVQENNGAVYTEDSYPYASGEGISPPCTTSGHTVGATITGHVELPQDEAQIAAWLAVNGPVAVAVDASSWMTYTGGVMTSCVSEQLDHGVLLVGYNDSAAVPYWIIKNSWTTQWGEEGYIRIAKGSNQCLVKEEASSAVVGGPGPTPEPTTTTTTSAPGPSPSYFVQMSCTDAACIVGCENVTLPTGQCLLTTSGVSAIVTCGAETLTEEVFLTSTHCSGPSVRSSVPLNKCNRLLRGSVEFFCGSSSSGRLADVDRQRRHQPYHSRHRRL
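Cysteine protease activity tested under reducing, mildly acidic conditions (100 mM sodium acetate pH 5.5, 5 mM DTT) plus 0.01% Triton X-100. Cruzain 1.5 nM; substrate Z-FR-AMC 2 uM; 15 min compound preincubation at room temperature.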
Cruzain inh noDet – blocks cruzain activity in detergent-free assay; purified cruzain, Z-FR-AMC fluorescence, no detergent; Potency, µM, inactives show max response, negative = inhibition, hits mostly inhibitors; 200,000 tested, 2.3% active; active = well fitted curve in the direction sought with a large enough effect; inconclusive = small, poorly fitted or top-dose-only effect, or another doubt; inactive = no such curve, though single readings can be large; an effect the other way counts as inactive or inconclusive;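 note: plate controls were enzyme without inhibitor for no effect and buffer without enzyme for full effect; nearly all actives have a fitted effect of over 40% in size; top concentration of the series not given in the record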
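Detergent-free condition (0.00005% Triton X-100) in acetate buffer pH 5.5 with DTT. 1.5 nM enzyme and compound were pre-mixed 15 min, then 2 uM Z-FR-AMC substrate added; reaction progress from fluorescence change between first and third reads (60 s).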
NS1 inh – blocks influenza NS1 protein function. S. cerevisiae slowed by influenza A NS1, growth recovery by OD600. Potency, µM (top dose mostly 46.1 µM), for inactives: at the highest dose activity, positive = more growth. 270,000 tested, 0.4% active; note: actives are rising curves; nearly all actives have a fitted effect of over 50% in size
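In this qHTS, NS1 from influenza A is expressed in budding yeast, where it slows growth. Cells are switched from glucose to 2% galactose medium (pH 6.0, -URA), treated with compound, and growth recovery is read at OD600.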
RE007 growth inh – less growth of the S. pombe RE007 Vpr strain | Potency, µM (titrated, usually from 92.2 µM), without a hit: at the top dose activity change, negative = less growth | S. pombe RE007 Vpr strain, BacTiter-Glo ATP luminescence, 24 h; control for the full effect not named in the record | 360,000 tested, 0.21% active; active = well fitted falling curve with a large enough effect; inconclusive = small, poorly fitted or top-dose-only effect; inactive = no such curve, though single readings can be large or run the other way;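 note: % is set by controls: 0 for no effect and ±100 for the full control effect; nearly all actives have a fitted effect of over 50% in size; the assay follows cell death caused by Vpr and the record does not say whether a fall means rescue or toxicity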
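Fission yeast strain RE007, carrying one chromosomally integrated HIV-1 vpr copy, was seeded at OD 0.01 in PMG+AL medium with 23 nL pinned compound. After 24 h at 30 °C and 99% humidity, viability was read by BacTiter-Glo luminescence.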
Numbers without * were called inactive; ? = inconclusive; · = not tested or not shown; [ ] = another dose, or the depositor's remark. Unless noted, calls come from the whole dose curve; as a rule, active means well fitted rising curve with a large enough effect; inconclusive means small, poorly fitted or top-dose-only effect; inactive means no such curve, though single readings can be large or run the other way. Potency is the fitted concentration of half-maximal effect.

SMILES	SARS PLP yeast	2A StopGo	MARV entry inh	Lassa entry inh	Cruzain Triton	Cruzain inh noDet	NS1 inh	RE007 growth inh
COc1ccc(-c2cc(CNS(=O)(=O)c3cc(OC)ccc3OC)on2)cc1	-1%	12%	·	·	·	·	-7%	4%
CCOC(=S)SCC(=O)Nc1nc(-c2ccccc2)cs1	-11%	-15%	?	?	-4.3%	-3%	-5%	-29%
COc1ccc(/C=N/n2c(N)nc3ccccc32)cc1OC	-2%	-4%	-20%	19%	-8.6%	-9%	-13%	-14%
Cc1ccc(NC(=O)Cn2c(=O)n(Cc3nc(C)no3)c(=O)c3cc4c(cc32)OCO4)cc1	·	-19%	·	11%[46.1 µM]	-4.7%	6%	·	·
Cc1cccc(OCC(=O)O/N=C(\N)Cc2cccs2)c1	0%	·	15%	-3%	-3.3%	4%	1%	-13%
CC(C)(C)c1cc(NS(=O)(=O)c2cccs2)no1	0%	-6%	·	·	·	·	7%	24%
CCCCN(C(=S)Nc1cccc(SC)c1)C1CCN(C(C)=O)CC1	-4%	-11%	?	-14%[46.1 µM]	·	·	·	-22%
CCOC(=O)N1CCN(C(=O)/C=C/c2cccc([N+](=O)[O-])c2)CC1	1%	-13%	20%[46.1 µM]	1%	·	·	·	8%
CCOc1ccc(-c2nc(CSc3nnc(N)s3)cs2)cc1	?	-10%	-5%	2%	-1.1%	11%	?	-8%
CCn1c(O)c(/C=N/NC(=O)c2ccncc2)c(=O)[nH]c1=S	1%	-9%	1%	22%	-8.4%	-4%	7%	-5%
N#C/C(=C\c1coc2ccc(O)cc2c1=O)C(=O)Nc1nc2ccccc2s1	-3%	?	·	·	·	·	8%	-20%
CCN1CC2=C(OC(N)=C(C#N)C2c2ccccc2)/C(=C\c2ccccc2)C1 (stereo not given)	-3%	22µM*	?	?	-5.0%	-23%	-1%	-6%
Cn1c(SCC(=O)N/N=C/C=C/c2ccco2)nc2ccccc21	8%	-21%	-2%	4%	-12%	-11%	21%	-24%
Cc1ccccc1OCC(=O)NNC(=S)NC(=O)c1ccccc1[N+](=O)[O-]	-6%	-13%	-10%	-5%	-2.8%	-20%	11%	15%
COc1ccc(CCNC(=O)C(=O)NCC2CCCO2)cc1 (stereo not given)	6%	-19%	22%	4%	-2.3%	0%	-1%	-9%
O=C1CC(NS(=O)(=O)c2cccnc2)CN1c1ccccc1 (stereo not given)	-1%	0%	-4%[46.1 µM]	-15%	·	·	·	-2%
Cn1c(=O)c(=O)n(C)c2cc(S(=O)(=O)N3CCOc4ccccc43)ccc21	2%	-3%	-27%[46.1 µM]	·	·	·	8%	7%
CCOC(=O)c1cccc(NC(=O)C(C)N2C(=O)c3ccccc3C2=O)c1 (stereo not given)	1%	-27%	0%	6%	-15%	-11%	-12%	2%
Cn1c(SCc2ccon2)nc2ccccc2c1=O	-2%	·	-6%	-6%	2.6%	-8%	-36%	-9%
Cc1ccccc1NC(=O)C(Cl)=C(Cl)Cl	-2%	?	?	-22%[46.1 µM]	·	·	-7%	8%
COc1cc2c(cc1OC)C(C)N(C(=O)c1cc(C)on1)CC2 (stereo not given)	-1%	-20%	-25%	?	·	·	-1%	-15%
C=CCNC(=S)Nc1ccc(OC(F)F)c(Cl)c1	-1%	29%	-28%[46.1 µM]	?	·	·	·	7%
Cc1ccc(NCc2ccccc2O)cc1C	-8%	26%	-11%[46.1 µM]	11%[46.1 µM]	·	·	·	10%
O=C(CCc1nc(-c2ccccc2)no1)NCCc1ccccc1	-2%	42%[activator]	?	7%	1.7%	4%	-46%	-11%
Cc1nc2c(C)cccc2cc1C(=O)N/N=C/c1ccc(O)cc1	-4%	-12%	?	?	-3.3%	-11%	-3%	-14%

Continued (2 carried over from the part before).
SMILES	SARS PLP yeast	2A StopGo	MARV entry inh	Lassa entry inh	Cruzain Triton	Cruzain inh noDet	NS1 inh	RE007 growth inh
O=C(CCc1nc(-c2ccccc2)no1)NCCc1ccccc1	-2%	42%[activator]	?	7%	1.7%	4%	-46%	-11%
Cc1nc2c(C)cccc2cc1C(=O)N/N=C/c1ccc(O)cc1	-4%	-12%	?	?	-3.3%	-11%	-3%	-14%
COc1cc(NC(=O)CC(c2cccs2)N2Cc3ccccc3C2=O)cc(OC)c1OC (stereo not given)	·	4%	·	5%[46.1 µM]	-3.0%	22%	·	·
CCN(CC)CCn1nc(C)nc1-c1ccccc1O	-1%	3%	-8%	10%	2.4%	-5%	9%	-1%
CCc1ccc(Nc2nn3c(=O)c4cc5c(cc4nc3s2)OCO5)cc1	·	5%	?	27%[46.1 µM]	-0.5%	8%	·	·
COc1ccc(-c2noc(=O)n2Cc2cc(C)ccc2C)cc1	-1%	12%	·	·	·	·	-2%	36%
O=c1cnnc(Nc2ccc(Nc3ccccc3)cc2)[nH]1	-1%	-4%	25%[46.1 µM]	-2%	·	·	·	-8%
COc1ccc(CNS(=O)(=O)CCNC(=O)c2ccc(OC)cc2)cc1	1%	-4%	2%[46.1 µM]	15%	·	·	·	11%
O=C(NCc1cccc(Br)c1)c1cccn1-c1nnc(N2CCCCC2)s1	·	5%	·	-10%[46.1 µM]	-5.9%	-7%	·	·
COc1ccc(Cl)cc1NC(=O)CN1CCN(S(=O)(=O)N2CCOCC2)CC1	1%	?	-5%[46.1 µM]	-16%	·	·	-11%	6%
N=c1ccn(Cc2ccc([N+](=O)[O-])cc2)cc1	-1%	-8%	6%	3%	·	·	2%	-6%
CC12CCC(C(=NO)C1=NO)C2(C)C (stereo not given)	·	10%	16%[46.1 µM]	-11%[46.1 µM]	·	·	·	5%
O=C1c2cccc3cccc(c23)C(=O)N1CCN1CCN(C(=S)Nc2ccc(Cl)cc2)CC1	17%	14%	9%	1%	0.5%	?	12%	18%
CC(C)(O)C#Cc1ccc(CN2CCN(C3CCCCC3)C(CCO)C2)s1 (stereo not given)	3%	-4%	7%[46.1 µM]	7%[46.1 µM]	·	·	1%	-1%
COc1ccc(C2(C)NC(=O)N(CC(=O)Nc3c(C)n(C)n(-c4ccccc4)c3=O)C2=O)cc1 (stereo not given)	1%	0%	-17%[46.1 µM]	-3%	·	·	·	-5%
COc1ccc(NC(=O)CCCN2C(=O)COc3ccc(C)cc32)cc1OC	·	-14%	3%[46.1 µM]	2%[46.1 µM]	-3.0%	-1%	·	·
O=S(=O)(NCCN1CCOCC1)c1ccc(Oc2ccccc2Cl)cc1	0%	-27%	?	-21%[46.1 µM]	·	·	3%	-3%
CC(=O)c1ccc(NC(=O)c2nn(C)c3c2CS(=O)(=O)c2ccccc2-3)cc1	·	-21%	·	-21%[46.1 µM]	-3.4%	-1%	·	·
Nc1c(C(=O)Nc2ccc(Br)cc2)sc2nc(-c3ccco3)ccc12	-20%	?	-16%	?	-8.1%	?	19%	10%
O=C(NN=C1CCN(Cc2ccccc2)CC1)c1cc2ccccc2cc1O	14%	12%	2%	14%	-5.1%	-12%	?	4%
Cc1cc(C)cc(NC(=S)N2CCN(S(C)(=O)=O)CC2)c1	-3%	-18%	22%	3%	·	·	1%	10%
COc1ccc(Nc2oc(/C=C/c3cccc(OC)c3)nc2C#N)cc1	·	21%	?	?	2.2%	13%	·	·
O=C(Cn1c(=O)oc2ccccc21)NCCc1ccccc1Cl	6%	-2%	-1%[46.1 µM]	9%[46.1 µM]	·	·	4%	5%
OCCC1CN(Cc2ccc3cccc(F)c3n2)CCN1Cc1ccccc1 (stereo not given)	-4%	-8%	·	·	·	·	12%	-4%
CSCC[C@H](NC(=O)N1CCn2c1nc1ccccc12)C(=O)NCc1ccccc1	11%	-19%	·	·	·	·	-11%	13%
O=C(CN(Cc1ccccc1)C(=O)c1cc2c(s1)CCC2)NCc1cccs1	2%	17%	?	-9%	-2.0%	15%	-74%	-9%
O=C(N/N=C/c1ccc2c(c1)OCO2)c1ccc(COc2cccc3cccnc23)cc1	1%	12%	·	·	·	·	3%	-3%
SMILES	SARS PLP yeast	2A StopGo	MARV entry inh	Lassa entry inh	Cruzain Triton	Cruzain inh noDet	NS1 inh	RE007 growth inh
COc1ccc(OCCOCCN2CCN(C)CC2)cc1	-1%	-9%	·	·	·	·	18%	4%
COc1ccc(NC(=O)CSc2nc(N)c(NC(=O)c3cccs3)c(=O)[nH]2)cc1	-1%	-5%	·	·	·	·	14%	11%
O=C(NCCc1ccccc1)c1ccc2c(c1)OCO2	-4%	7.9µM*	1.3µM*	1.1µM*	·	·	-7%	-7%
c1cncc(-c2noc(-c3cccc4ccccc34)n2)c1	6%	54%[activator]	?	1%	-9.7%	7%	-6%	-8%
COc1ccc(-c2cc(-c3c(O)c(OC)c4occc4c3OC)[nH]n2)cc1	-12%	3%	?	-8%	-14%	-15%	13%	2%
O=C(NC1CCC(O)CC1)c1ccccc1OCc1ccc(F)cc1 (stereo not given)	8%	-16%	4%[46.1 µM]	-3%[46.1 µM]	·	·	8%	8%
COc1ccccc1CNC(=O)CSc1nc(=O)[nH]c2c1CCCC2	·	-7%	·	5%[46.1 µM]	-1.0%	10%	·	·
COCCC(=O)Nc1c(-c2ccccc2)c2cc(Br)ccc2[nH]c1=O	5%	-14%	·	·	·	·	18%	4%
CCc1nc(C)ccc1OCC(=O)N(CC)CC	-5%	·	10%	17%	5.5%	1%	5%	9%
Cc1nc(C(=O)Nc2ccccc2)sc1C1(C)CC(c2cccc([N+](=O)[O-])c2)=NO1 (stereo not given)	-1%	-11%	0%	·	·	·	6%	1%

Single values from the list:
COCCC(=O)Nc1c(-c2ccccc2)c2cc(Br)ccc2[nH]c1=O in 2A StopGo: -14%
COc1ccc(NC(=O)CSc2nc(N)c(NC(=O)c3cccs3)c(=O)[nH]2)cc1 in SARS PLP yeast: -1%

Screening data deposited in PubChem BioAssay by National Center for Advancing Translational Sciences (NCATS).
